Beta cell apopt – blocks beta cell apoptosis; AID 435005; hit rate 0.8% among 300,000; protection from apoptosis, % (test concentration not listed); INS-1E cytokine-induced death, ATP luminescence, 48 h; percent of positive-control rescue, neutral wells zero;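 active = all replicates at 75% or more, or half of them and the mean; inconclusive = half reach 75% but not the mean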;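 also: 0% = cytokine-treated negative control wells and 100% = positive control rescue; higher means more ATP so stronger rescue from cytokine killing; wells of about 40 µL received 100 nL stock; the first replicate is given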
Vif TR-FRET – inhibitors of Vif binding to APOBEC3G peptide, primary screen, biochemical, TR-FRET, GST-Vif 1-94, biotin-A3G peptide, dose response retest (AID 1117319) | TR-FRET GST-Vif / biotin-A3G peptide binding; higher % means a stronger effect; test concentration not given here; strong numbers were not always called active | inhibition, %, or IC50 in µM where a hit was titrated | hit rate 0.57% among 260,000;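 active = above the screen mean plus three standard deviations and confirmed in dose response; inconclusive = results disagree or hit not tested in dose response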;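 also: Vif residues 1-94 fused to GST binding biotinylated APOBEC3G peptide 110-148; 0% = full assay without inhibitor and 100% = GST in place of GST-Vif; retest series ran down from 100 µM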
Calb FLC – C. albicans growth modulation with fluconazole | C. albicans CaCi-2 (fluconazole-resistant clinical isolate) + fluconazole, Alamar Blue growth, 48 h | growth inhibition, % (test concentration not listed) | hit rate 0.57% among 300,000 | AID 1979;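 active = most replicates above 75%; inconclusive = exactly half above 75%; inactive = most below 75%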;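 also: all wells also contain fluconazole at 8 µg/ml as a sub-toxic cotreatment; 0% = median of DMSO wells and 100% = median of geldanamycin control wells; wells of about 8 µL received 7.5 nL stock; the first replicate is given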
A1 inh – inhibitors of the anti-apoptotic protein A1, read as caspase activation; caspase activation, % (test concentration not listed); AID 2462; hit rate 0.066% among 330,000; MEF A1-2A-BIM cells, Caspase-Glo 3/7 luminescence, 3 h; percent of clofoctol response, vehicle zero;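 active = over half of replicate activation scores above 10%, or exactly half above 10 with the replicate mean above 10; inconclusive = replicate mean below 10 yet half the replicates above 10; inactive = over half of replicates below 10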;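 also: wells of about 30 µL received 50 nL stock; many hits fall short of the cut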
RanGTP-Impb inh – inhibitors of RanGTP-importin-beta interaction, primary screen, biochemical, FRET, CFP-Ran, YFP-importin-beta, homogeneous; cell-free CFP-Ran/YFP-importin-beta FRET ratio; inhibition, % (concentration not given with the values); hit rate 1.1% among 300,000;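 active = most replicates above 15%; inconclusive = exactly half above 15%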;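 also: 0% = DMSO wells and 100% = Ran loaded with GDP instead of GTP; wells of about 40 µL received 100 nL stock; the first replicate is given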
T cruzi repl – blocks replication of Trypanosoma cruzi | T. cruzi beta-gal in NIH3T3, luminescence, 90 h | inhibition, % (test concentration not listed) | hit rate 1.4% among 300,000 | AID 1885;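 active = mean inhibition across valid replicates above about 55%, limit read from the data; inconclusive = mean below that limit but half or more replicates reach it; inactive = mean below it, under half of replicates reach it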;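 also: signal also drops with host cell toxicity which is not excluded here; 0% = plate median of DMSO wells and 100% = zero luminescence signal; higher percent means less beta-gal luminescence so fewer parasites; stock transfer was 50 nL into about 50 µL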
rRNA inh HTS – inhibits bacterial ribosomal RNA function over humanized ribosomes; hit rate 1.6% among 350,000; GFP signal change (wild-type ribosome), % (no concentration beside the values); E. coli WT GFP vs humanized-ribosome RFP mutants, fluorescence, 24 h; stronger effect = lower value; DMSO median 0, no signal -100;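 active = significant combined selectivity score with lowered wild-type GFP, culture density cut under 30%, mutant RFP and density less affected; inactive = any of these conditions unmet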; also: one replicate is shown; some compounds called inactive have numbers as strong as hits
AF4-AF9 inh – inhibitors of human MLL-AF4/AF9 interaction; AlphaScreen, biotin-AF4 peptide binding to FLAG-AF9; AID 651704; hit rate 0.47% among 350,000; P42568; inhibition, % at 10 µM;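 active = every replicate reaching a set inhibition limit, whatever the replicate mean, cut at about 25% in these data; inconclusive = mean inhibition reaches that limit but some replicates miss it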;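 also: 0% = plate neutral control median and 100% = total signal loss; the record names both 10 and 1 µM as test concentration; the first replicate is given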
Target sequence (P42568 whole entry, looked up): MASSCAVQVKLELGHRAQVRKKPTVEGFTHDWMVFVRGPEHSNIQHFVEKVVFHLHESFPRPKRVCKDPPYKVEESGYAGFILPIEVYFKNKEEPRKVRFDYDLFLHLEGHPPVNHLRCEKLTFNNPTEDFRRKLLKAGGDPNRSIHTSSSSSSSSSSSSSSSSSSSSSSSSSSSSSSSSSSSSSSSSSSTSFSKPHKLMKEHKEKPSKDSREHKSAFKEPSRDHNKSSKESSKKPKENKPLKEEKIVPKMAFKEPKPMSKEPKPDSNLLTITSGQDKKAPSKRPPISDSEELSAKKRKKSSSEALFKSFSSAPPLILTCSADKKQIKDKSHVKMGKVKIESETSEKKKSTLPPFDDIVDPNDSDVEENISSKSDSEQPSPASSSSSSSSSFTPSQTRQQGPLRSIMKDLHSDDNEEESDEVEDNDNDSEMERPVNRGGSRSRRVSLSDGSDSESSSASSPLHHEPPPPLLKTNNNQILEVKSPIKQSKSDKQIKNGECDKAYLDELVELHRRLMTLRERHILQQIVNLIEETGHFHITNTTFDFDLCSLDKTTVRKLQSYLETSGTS
rRNA inh HTS OD600 – further read-out of rRNA inh HTS, marked with its call; OD600 change, %; measured here: OD600 growth;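 optical density of the mix in the first replicate; 0 = DMSO median and -100 = no signal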
rRNA inh HTS RFP – also measured in rRNA inh HTS; calls as there; RFP signal change, %; measured here: RFP humanized mutant strains;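 first replicate; 0 = DMSO median and -100 = no signal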
The depositor's hits bear a star; u = inconclusive; x = not tested or not shown; & = joins results of further samples. An excerpt; the hit share may differ from the screen's.

SMILES	Beta cell apopt	Vif TR-FRET	Calb FLC	A1 inh	RanGTP-Impb inh	T cruzi repl	rRNA inh HTS	rRNA inh HTS OD600	rRNA inh HTS RFP	AF4-AF9 inh
O=C(NC1CCCC1)C(c1cccnc1)N(C(=O)c1csnn1)C1CC1 (centres undefined)	-2	1%	5	0.1	u	-12	x	x	x	x
COc1ccc(S(=O)(=O)N2CC(O)CC2C(=O)OCc2nc3sc(C)c(C)c3c(=O)[nH]2)cc1 (centres undefined)	0	-1%	2	3.3	0.5	-6	x	x	x	x
Cc1ccccc1C(=O)N1CCC(n2nccc2NC(=O)C2CC2)CC1	x	-3%	-8	0.0	3.0	5	x	x	x	x
COc1ccc(NS(=O)(=O)c2ccc(N3CCOCC3)c(N)c2)cc1	76*	25%	x	-2.5	x	x	-1	1	-0.5	1.8
Cc1nn(-c2ccccn2)c(C)c1Oc1ccccc1O	-9	4%	-1	-1.7	1.2	-4	x	x	x	x
COc1ccc(NS(=O)(=O)c2ccc(Cl)c(NC(=O)c3cccnc3Cl)c2)cc1	-4	12%	1	0.8	2.9	11	-20	-20	3.7	0.7
Clc1ccc(COn2c(-c3ccc(Cl)cc3Cl)nc3ncccc32)cc1	8	8%	23	0.2	2.4	18	x	x	x	x
c1ccc(-c2nccc(-c3ccc(-n4cnc5ccccc54)cc3)n2)cc1	5	-3%	11	0.3	-5.8	5	x	x	x	x
CSc1ccc(CCNC(=O)Cn2ncc3c([nH]c4ccccc43)c2=O)cc1	-4	1%	41	-2.7	0.7	-6	10	9	1.2	-1.5
CCOC(=O)c1ccc(NC(=O)c2nc[nH]c2C(=O)N[C@@H](Cc2ccccc2)C(=O)OC(C)(C)C)cc1	18	-5%	6	-1.0	2.7	-12	8	5	-2.9	2.5
c1ccc(CNc2ncnc3ccccc23)cc1	39&40	3%	26&1	-0.4&0.3	1.2&3.7	-73&-19	x	x	x	-4.1
CCN(CC)c1ccc(NC(=O)CN2C(=O)CSc3ncccc32)c(C)c1	53	-3%	-3	-0.3	-1.3	-9	10	9	-0.4	-2.0
C/C(CC(=O)Nc1ccc(N(C)C)cc1)=N\NC(=O)Cc1csc(N)n1	-4	u	6	0.4	u	4	x	x	x	x
CCS(=O)(=O)c1ccc2oc(Nc3ccccc3Cl)nc2c1	17	x	-7	-18	0.9	14	1	5	-3.0	4.4
CC(=O)Nc1ccc(NC(=O)c2cccc(S(=O)(=O)N(C)C3CCCCC3)c2)cc1	-2	1%	x	0.6	x	x	-1	19	0.2	-1.3
CC1(C)CC(=O)C2=C(C1)NC(=O)NC2c1ccccc1Cl (centres undefined)	-1	x	-1	2.0	-1.6	-12	20	17	3.1	-8.2
O=C(NCc1ccco1)c1ccc2[nH]c(=O)c(=O)[nH]c2c1	1	x	-22	0.1	4.8	-19	11	10	0.1	-0.2
Cc1nn(-c2ccccc2)c(Cl)c1/C=C/C(=O)c1ccc(O)cc1	1	x	62	-1.9	-0.5	3	-26*	-20*	-0.7*	3.6
CCOC(=O)C1(CCOc2ccccc2)CCN(CCCn2cccn2)CC1	-3	2%	-8	-0.3	1.2	12	1	0	-2.7	1.9
Cc1ccc(S(C)(=O)=O)cc1C(=O)OCC(=O)N(Cc1ccccc1)Cc1ccccc1	2	0%	x	0.0	x	x	-4	-12	8.2	0.7
CN1CCC(N(C)C(=S)NCCc2ccccc2)CC1	-2	4%	22	0.6	0.6	2	16	19	-0.9	-1.4
Cc1nc(C(F)(F)F)ccc1C(=O)NCC(O)c1ccccc1 (centres undefined)	x	2%	-2	1.0	1.8	13	8	6	-0.5	0.6
Cc1cc(C)c(S(=O)(=O)c2ccccc2C)c(N(C)C)n1	-9	4%	-1	1.0	-2.7	-10	x	x	x	x
O=C(c1ccccc1)[C@@H]1[C@@H]2C(=O)N(c3ccc(F)cc3)C(=O)[C@@H]2C2CCCN21 (some centres undefined)	-6	x	-2	0.7	-13	-14	4	3	6.7	2.3
CCS(=O)(=O)N1CCc2cc(OC)c(OC)cc2C1	-3	u	-8	0.1	-2.1	2	x	x	x	x
O=[N+]([O-])c1cccc(/C=C/c2nc(C=Nc3ccccc3)c(O)o2)c1	4	-2%	-3	0.0	u	-13	14	8	-7.3	-1.6
CCSc1nc(-c2ccccc2)nc2c1CCCC2	0	3%	-2	1.3	7.1	8	16	14	1.7	-3.2
O=S(=O)(c1ccc2nnn(O)c2c1)N1CCOCC1	-3	x	x	0.1	x	x	-2	3	-4.3	0.5
Cc1c(Cl)cnc(NC(=O)COC(=O)c2cc3c(s2)CCC(C)C3)c1Cl (centres undefined)	-1	18%	-12	0.5	1.2	9	1	3	3.4	-1.3
Cc1ccnc(SCC(=O)Nc2sccc2C#N)n1	3	0%	4	-0.2	-5.4	-24	5	3	8.2	0.8
CC(=O)N(C)c1ccc(OCC(O)CN(c2ccccc2C)S(=O)(=O)c2ccc(C)cc2)cc1 (centres undefined)	10	x	x	0.6	x	25	-21	-23	2.5	1.4
O=C1OC(c2ccc3c(c2)OCO3)N(C(=O)c2ccc(Cl)c(Cl)c2)c2ccccc21 (centres undefined)	16	1%	-7	-2.7	5.6	-6	x	x	x	x
O=c1cc(CSc2nnc3ccccn23)c2c(ccc3ccccc32)o1	1	12%	-4	-0.7	2.3	11	x	x	x	x
Cc1ccc(/C=C(\NC(=O)c2ccccc2)C(=O)NCC2CCCO2)o1 (centres undefined)	-8	6%	3	0.7	1.0	6	11	11	6.7	-5.7
Cc1[nH]c(=O)[nH]c(=O)c1NC(=O)CSc1ncccc1-c1nc2ccccc2[nH]1	-6	6%	-1	-0.9	-1.2	-20	16	9	27	5.4
COc1ccccc1NS(=O)(=O)c1ccc(C)c(C(=O)NCC(c2ccco2)N2CCCCC2)c1 (centres undefined)	-1	x	-5	0.2	2.6	12	13	4	-0.9	1.9
Cc1ccc(Cl)cc1N1CCN(C(=O)C2CCN(c3nnc(-n4cccc4)s3)CC2)CC1	15	8%&10%	-2	-0.7	1.6	28	2	0	3.1	-2.1
Cc1cc(C)c2c3c(oc2n1)C(=O)N(c1cccc(Cl)c1)CC(=O)N3	-2	14%	-18	-0.1	-0.5	-1	18	0	-1.2	x
c1ccc(CCn2cnc3ccccc32)cc1	3	12%	-12	-1.3	0.2	9	3	3	1.0	2.1
CCOc1cc(/C=C2\C(=O)ON=C2C)ccc1OCc1ccccc1	4	10%	5	-1.4	u	3	x	x	x	x
O=C1Nc2ccccc2C1(O)c1ccccc1O (centres undefined)	-5	-5%	-9	0.5	4.3	-11	2	11	1.6	-2.3
CN(C)c1cc(NC(=O)CNC(C)(C)C)c2ccccc2n1	x	31%	-5	1.1	-2.1	11	11	11	1.0	x
O=C(NNS(=O)(=O)c1ccccc1[N+](=O)[O-])c1ccccc1Cl	-9	6%	12	0.3	-5.6	-1	-14	-32	-1.8	-2.0
CCc1ccc(S(=O)(=O)Nc2ccc(Br)cn2)cc1	-2	x	9	1.8	-4.0	7	-7	-11	-2.7	-9.9
COc1cccc(/C=N\NC(=O)Cn2nnc3ccccc32)c1O	-2	-9%	-1	-0.8	-3.1	-17	-20*	2.2*	1.7*	-2.0
OCC1(Cc2ccccc2F)CCCN(CCc2ccccc2)C1 (centres undefined)	x	x	4	-0.2	-0.5	8	3	0	0.3	5.6
CCCn1c(SCC(=O)NCc2ccccc2)n[nH]c1=O	6	5%	1	-0.5	-0.8	-12	16	10	6.2	-2.0
Cc1ccc(-c2noc(CCC(=O)N3CCN(c4cccc(C(F)(F)F)c4)CC3)n2)cc1	5	6%	4	u	-2.5	31	x	x	x	x
O=C(Cn1c(-c2ccccc2)c[n+]2ccsc12)c1ccccc1	15	-8%	-53	1.2	-0.3	69*	21	20	7.3	-1.1
Cc1ccc(-c2nc(N)n(C(=O)c3cccs3)n2)cc1	-1	-8%	20	0.0	-0.7	-1	x	x	x	x
O=C1C(=O)N(Cc2cccnc2)C(c2cccc(F)c2)/C1=C(/O)c1ccc2c(c1)OCO2 (centres undefined)	-1	-20%	-3	0.2	-3.3	-7	7	11	1.4	0.0
CCc1nnc(NS(=O)(=O)c2ccc(NC(=S)NC(=O)c3ccccc3)cc2)s1	-6	x	1	0.2	0.1	5	x	x	x	x
Cc1nn(C)c(C)c1/C=C(/C(=O)C(C)C)n1cncn1	-2	33%	0	0.1	-0.4	4	16	16	2.1	-1.2
N#Cc1cccnc1N1CCN(C(=O)c2ccc3c(c2)S(=O)(=O)c2ccccc2C3=O)CC1	-1	x	10	-1.4	-5.1	3	1	-8	1.2	7.1
Cc1ccc(C(O)(C(=O)NN(C(=O)c2ccccc2)c2ccccc2)c2ccc(C)cc2)cc1	x	1%	10	0.7	-1.5	7	x	x	x	-1.9
COc1ccc(-c2ccc(=O)n(CC(=O)NCC3COCCO3)n2)cc1 (centres undefined)	0	7%	-1	-0.5	0.7	-12	3	8	-1.3	0.7
Cn1nnc(NC(=S)NC(=O)c2cccc3ccccc23)n1	-4	x	-2	0.6	0.9	0	4	-8	-4.9	-1.2
Cc1ccc([N+](=O)[O-])cc1NC(=O)CN1CCC(C)CC1	-7	-2%	-9	-0.5	1.1	-2	x	x	x	x
CC1(C)CC(=O)C2=C(C1)OC(N)=C(C#N)C21C(=O)N(CN2CCOCC2)c2ccccc21 (centres undefined)	-2	4%	-5	0.3	-2.3	-5	x	x	x	x
Cc1cccc(N2CC3=C(C2=O)C(c2ccccc2)NC(=O)N3C)c1 (centres undefined)	-15	0%	-1	0.9	-1.6	0	x	x	x	x
The list continues.
SMILES	Beta cell apopt	Vif TR-FRET	Calb FLC	A1 inh	RanGTP-Impb inh	T cruzi repl	rRNA inh HTS	rRNA inh HTS OD600	rRNA inh HTS RFP	AF4-AF9 inh
NC(=O)C1CC(=O)N(Cc2ccc3c(c2)OCO3)C(=Nc2ccccc2)S1 (centres undefined)	-7	4%	64	1.5	4.9	11	-18*	2.0*	0.1*	2.9
CCN(Cc1ccccc1)C(c1ccncc1)c1nnnn1C(C)(C)C (centres undefined)	x	13%	30	-0.4	1.0	12	x	x	x	x
N/C(=N\OC(=O)CCCN1C(=O)c2ccccc2C1=O)c1ccc(Cl)cc1	-12	0%	-6	-0.4	u	-5	x	x	x	x
CCOc1ccc(NC(=O)CN2CCN(C(=O)c3ccco3)CC2)cc1S(=O)(=O)N1CCCC1	0	0%	x	0.8	x	x	x	x	x	-7.2
CC(=O)Nc1cccc(NC(=O)COc2ccccc2C)c1	-2	-7%	5	-1.3	0.7	0	5	5	2.1	-6.4
CCN(CC)CCNC(=O)c1ccc(NC(=O)Cc2ccccc2F)cc1	-3	-4%	12	-0.2	-0.3	7	11	8	0.8	-0.6

Compound activity: PubChem BioAssay, several laboratories
